Compound activity from PubChem.
RE007 growth inh – less growth of the S. pombe RE007 Vpr strain. Potency, µM (series often up to 92.2 µM), for the others: at the top dose activity change, negative = less growth. S. pombe RE007 Vpr strain, BacTiter-Glo ATP luminescence, 24 h; control for the full effect not named in the record. hit rate 0.21% among 360,000; active = well fitted falling curve with a large enough effect; inconclusive = small, poorly fitted or top-dose-only effect; inactive = no such curve, though single readings can be large or run the other way;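 further: nearly all actives have a fitted effect of over 50% in size; the assay follows cell death caused by Vpr and the record does not say whether a fall means rescue or toxicity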
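Fission yeast RE007 carrying one integrated HIV-1 vpr copy, seeded at OD 0.01 in PMG+AL medium with 23 nL pinned compound. Grown 24 h at 30 degrees; viability read by BacTiter-Glo luminescence after 5 min.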
2A StopGo – lowers the luciferase signal of an FMDV 2A StopGo reporter; human cells with a luciferase reporter of 2A StopGo recoding; control for the full effect not named in the record; AID 1159524; Potency, µM (highest dose often 57.9 µM), inactives show at the highest dose signal change, negative = less light; hit rate 1.2% among 410,000; active = well fitted falling curve with a large enough effect; inconclusive = small, poorly fitted or top-dose-only effect; inactive = no such curve, though single readings can be large or run the other way; tested in HEK293T cells; further: nearly all actives have a fitted effect of over 45% in size; luciferase light after 4 h
Starred values were filed as active, the others as inactive; ? = inconclusive; [ ] = remark or other dose. On the % scale 0 is the no-effect control and ±100 the full control effect; potency means the concentration at half of the fitted maximal effect. These rows are one share of the data; rates above refer to the full screens.

Values run as follows: RE007 growth inh	2A StopGo
- COc1ccc(C(c2nnnn2-c2ccc(OC)cc2)N2CCN(C/C=C/c3ccccc3)CC2)cc1 (stereo not drawn)
 : 7%	26%
- CCCc1nc2c(Cl)cc(C(F)(F)F)cn2c1Cc1ccc(OC)cc1C
 : -18%	1%
- Nc1c(N(Cc2ccccc2)C(=O)COc2ccc([N+](=O)[O-])cc2)c(=O)[nH]c(=O)n1Cc1ccccc1
 : 8%	-17%
- CC(=O)C[C@H]1c2cc(C(F)(F)F)ccc2S(=O)(=O)N1C1CCCCC1
 : -2%	27%
- COc1ccc(NC(=O)C2(C)CCCN(C(C)=O)C2)cc1F (stereo not drawn)
 : -12%	-18%
- COc1ccc(CN2C(=O)CCC2(C)c2nnnn2-c2c(C)cccc2C)cc1OC (stereo not drawn)
 : 2%	-21%
- COCOc1cccc(CN2CCC(C)(Oc3ccc(SC)cc3)C2)c1 (stereo not drawn)
 : -4%[18.4 µM]	0%
- Cc1c(C(=O)NCCC#N)sc(=O)n1Cc1ccccc1F
 : -13%[18.4 µM]	7%
- CN(C(=O)c1cccc(NC(=O)Cc2cccc(NC(=O)C3CCCN(C(=O)C4CCCC4)C3)c2)c1)C1CC1 (stereo not drawn)
 : 4%	0%
- C[C@H](CO)N1C[C@H](C)[C@@H](CN(C)Cc2cccc(O)c2)OCc2cnnn2CCCC1=O
 : 12%	?
- O=C(Nc1ccc(Cl)cc1)C1Cc2c(-c3ccccc3Oc3ccccc3)ccnc2O1 (stereo not drawn)
 : 10%[18.4 µM]	-17%
- O=C1C=CN(C2OC(CO)C(O)C2O)C(=O)C1 (stereo not drawn)
 : 5%	-9%
- COc1ccc(N(C=O)C(C(=O)Nc2c(C)cccc2C)c2ccccc2)cc1 (stereo not drawn)
 : -3%	57%[activator]
- Cc1cccc(C)c1OCc1cn(CC(=O)c2ccc(O)cc2)nn1
 : -13%	-16%
- O=C(NC1CCCC1)c1nc(-c2c(F)cccc2F)oc1-c1ccccc1
 : -8%	7%
- COC(=O)c1ccc(CNC(=O)c2ccc(OC)c(S(=O)(=O)NC3CC3)c2)cc1
 : -11%	15%
- COC(=O)C=CSC(=S)C1CCCC1=N (stereo not drawn)
 : -2%	41%[activator]
- C[C@H]1CN([C@@H](C)CO)C(=O)c2cc(-c3ccccc3F)cnc2O[C@@H]1CN(C)C(=O)NC1CCCCC1
 : 6%	-24%
- COC(=O)c1ccc(CN2C(=O)C(Cc3ccccc3)ON=C2c2ncccc2C)o1 (stereo not drawn)
 : 0%[18.4 µM]	-4%
- CC(C)(C)C(=O)N1Cc2ccccc2-n2nncc2C1
 : -2%	-15%
- CC1=C(C(=O)N2CCOCC2)CC(CC(=O)NC2CCCC2)C(=O)N1Cc1ccc(F)cc1 (stereo not drawn)
 : 14%	?
- O=C(Cc1ccc(Cl)cc1)N/N=C/c1ccc(O)c(O)c1
 : -25%	-22%
- COCCC(=O)N1CCOCC1c1cc(C(=O)NCc2ccccc2)no1 (stereo not drawn)
 : 1%	-7%
- CC(=O)N(C)C[C@@H]1Oc2ncc(Br)cc2C(=O)N([C@H](C)CO)C[C@@H]1C
 : 10%	-11%
- COc1ccc(CCN2CC(C(=O)NCCCc3ccncc3)CCC2=O)cc1 (stereo not drawn)
 : 7%	0%
- O=C(NCc1ccco1)c1cccc(-c2ccc3nccn3c2)c1
 : -11%[18.4 µM]	-13%
- COc1ccccc1NS(=O)(=O)c1cc(C(=O)NC2CC(C)(C)NC(C)(C)C2)ccc1Cl
 : -9%	-21%
- CCCS(=O)(=O)NC(=O)C1(C)CCCN(C(=O)/C=C/c2ccccc2)C1 (stereo not drawn)
 : 5%	-7%
- CCCCNC(=O)c1onc(CSc2cc(C)cc(C)c2)c1C(=O)NCCCC
 : 12%	-14%
- CCCCCCN1C[C@@H](O)[C@H](n2cc(C3CC3)nn2)C[C@@H]1c1ccc(OC)cc1
 : -9%	-15%
- COC(=O)[C@]12CCCCC=C1N(CCC1=CCCCC1)C(=O)[C@H](CC(=O)NCc1ccc(C)o1)C2
 : -8%	-20%
- COc1ccc(C2=Nc3ccccc3N(C(=O)Cc3cc(OC)cc(OC)c3)C2C(=O)NC(C)(C)C)cc1 (stereo not drawn)
 : 12%	51%[activator]
- O=C(Nc1ccc(C(=O)O)cc1)/C(=C\c1ccco1)NC(=O)c1ccc(Br)cc1
 : 1%	-22%
- COc1ccc(OC)c(NC(=O)C2(C)CCN2Cc2ccsc2)c1 (stereo not drawn)
 : -16%	0%
- CCOC(=O)[C@]12CCCC=C1N(Cc1ccc(Cl)cc1Cl)C(=O)[C@H](CC(=O)NCc1cccs1)C2
 : 6%	11%
- CCOC(=O)C1(C)CCCN1C(=O)c1c(F)cccc1F (stereo not drawn)
 : -4%	-2%
- CN1CCN(c2ccncc2S(=O)(=O)N2CCCC2)CC1
 : 8%	0%
- O=C(Nc1cccc(Cl)c1)c1ccc2sc([C@@H]3O[C@H](CO)[C@H](O)[C@H](O)[C@H]3O)nc2c1
 : -2%[18.4 µM]	29%
- CCOC(=O)[C@]12CCC=C1N(CCC1=CCCCC1)C(=O)[C@H](CC(=O)N1CCCC1)C2
 : 22%	-15%
- CCc1nc2c(OCC(=O)C(C)(C)C)cccn2c1N(C)C(=O)Nc1ccccc1OC
 : 8%	-9%
- CC(C)(C)n1nnnc1C(c1cc2ccccc2o1)N1CCCCC1 (stereo not drawn)
 : -9%	2%
- Cc1ccc(S(=O)(=O)N2CC3(O)CN(C(=O)OC(C)C)N(C(=O)OC(C)C)CC3(OC(=O)NCc3ccco3)C2)cc1 (stereo not drawn)
 : 0%	?
- CSc1nsc(SC)c1-c1ccc(Cl)cc1
 : 1%	-4%
- CSc1ccc(CN2CCC2(C)C(=O)Nc2ccc(C)c(O)c2)cc1 (stereo not drawn)
 : 4%	-4%
- CCOc1ccc(-c2cc(C(=O)Nc3cc(OC)c(OC)c(OC)c3)[nH]n2)c(C)c1
 : 20%	-14%
- COc1ccccc1CNc1nc(NCCNC(C)=O)c2sccc2n1
 : ?	-16%
- O=S1(=O)CC(N2CCCC2)CN1Cc1ccc(F)cc1 (stereo not drawn)
 : 10%	-13%
- O=C(Nc1cccc(C(F)(F)F)c1)C1Cc2c(-c3cccc(F)c3)ccnc2O1 (stereo not drawn)
 : 6%	?
- CC1(C(=O)Nc2cccc3c2CCCC3)CCN1C(=O)CCc1ccc(Cl)cc1Cl (stereo not drawn)
 : -6%	-24%
- CCCCCCNC(=O)O[C@@]12CN(S(=O)(=O)c3ccc(C)cc3)C[C@]1(O)Cn1c(=O)n(CCCCCC)c(=O)n1C2
 : -19%	?
- CC(C)c1ccc(NC(=O)Nc2nc(C(C)N)cs2)cc1 (stereo not drawn)
 : 10%[18.4 µM]	-5%
- O=C(CCS(=O)(=O)c1ccccc1)Nc1nc(-c2ccccn2)cs1
 : 9%	-24%
- CCc1nc2c(OCc3ccccc3)cccn2c1N(C)C(=O)COc1ccccc1
 : -30%	-23%
- COc1cccc(-c2cc(NC=O)c3ncc(-c4cccc(C(=O)N(C)C)c4)n3c2)c1
 : 3%[18.4 µM]	-18%
- C[C@H]1CNC(=O)c2c(C(=O)Nc3cccc(Cl)c3)ncn21
 : -26%	0%
- COc1ccccc1-c1nc2ccccc2n(CC(C)C)c1=O
 : 7%	-5%
- Nc1ncnc2c1ncn2[C@@H]1O[C@H](C(=O)N[C@H](CO)Cc2ccc(O)cc2)[C@@H](O)[C@H]1O
 : 1%	-19%
- O=C(CSc1nnc(COc2ccc(Cl)cc2)o1)Nc1nccs1
 : -13%	7%
- CCOC(=O)C1CCc2c(ccc3ccccc23)N1CCC#N (stereo not drawn)
 : 9%	-17%
- Cc1ccc(S(=O)(=O)N2CCN(C(=O)COC(=O)CNC(=O)c3ccc(Cl)cc3Cl)CC2)c(C)c1
 : 3%	-18%

Profiles from above:
CC(C)c1ccc(NC(=O)Nc2nc(C(C)N)cs2)cc1 (stereo not drawn) reads RE007 growth inh: 10%[18.4 µM]; 2A StopGo: -5%
O=C(CSc1nnc(COc2ccc(Cl)cc2)o1)Nc1nccs1 reads RE007 growth inh: -13%; 2A StopGo: 7%
O=C(Nc1cccc(C(F)(F)F)c1)C1Cc2c(-c3cccc(F)c3)ccnc2O1 (stereo not drawn) reads RE007 growth inh: 6%; 2A StopGo: ?

Next section:
Values run as follows: RE007 growth inh	2A StopGo
- CC1(C(=O)Nc2ccc3c(c2)OCO3)CCN1C(=O)c1ccco1 (stereo not drawn)
 : -13%[18.4 µM]	-20%
- Cc1ccccc1CN1C(=O)CN(S(C)(=O)=O)CC1(C)C(=O)NC(C)C (stereo not drawn)
 : 0%	-11%
- CN1CCCCC1(C)C(=O)NCc1ccc(C(C)(C)C)cc1 (stereo not drawn)
 : -14%[18.4 µM]	-13%
- COC(=O)[C@H](CC(C)C)NC(=O)/C=C/[C@H]1O[C@@H](n2cc(C)c(=O)[nH]c2=O)C[C@@H]1O
 : 0%	-15%
- Cc1ccc(C(O)c2ncc(-c3ccc(F)cc3)[nH]2)c(C)c1 (stereo not drawn)
 : -5%	-6%
- CC1(C(=O)NCc2cccc3ccccc23)CCN1C(=O)C1(c2ccccc2)CC1 (stereo not drawn)
 : 5%	-7%
- c1ccc(-c2ccc(CN3Cc4ccccc4-n4nncc4C3)cc2)cc1
 : 15%	?
- CCCCNC(=O)c1nc(-c2ccncc2)oc1-c1ccc(OC(F)(F)F)cc1
 : 0%	-16%
- O=S(=O)(c1ccccc1)N1Cc2ccccc2-n2nncc2C1
 : 7%	-23%
- COc1ccc(S(=O)(=O)N2CCOCC2)cc1NC(=O)C1CC(=O)N(c2ccc3c(c2)OCCO3)C1 (stereo not drawn)
 : 14%	1%
- CCOC(=O)N(C)C[C@@H]1OCc2cnnn2CCCC(=O)N([C@H](C)CO)C[C@@H]1C
 : -30%	-15%
- Cc1ccc([C@H]2C[C@@H](n3cc(COC(=O)c4ccccc4)nn3)[C@H](O)CN2C(=O)c2cccs2)cc1
 : 0%	-3%
- C[C@@H]1CN([C@H](C)CO)C(=O)CCCn2cc(nn2)CO[C@H]1CN(C)S(=O)(=O)c1ccc2ccccc2c1
 : -6%	-8%
- CC(Nc1nc(-c2ccc(F)cc2)cs1)c1nc2cc(C(F)(F)F)ccc2n1CCCO (stereo not drawn)
 : 30%	-27%
- CC1(C(=O)NS(=O)(=O)c2ccccc2Cl)CCN1C(=O)c1ccccc1CCc1ccccc1 (stereo not drawn)
 : -3%[18.4 µM]	-7%
- CCOc1ccc(-c2cc(C(=O)Nc3ccc(F)cc3)[nH]n2)c(C)c1
 : -10%	27%
- CCCCC(=O)N(C)c1c(CC)nc2c(OCCC3CCCCC3)cccn12
 : -22%	?
- CCOC(=O)c1c(C)oc2cc(Sc3ccccc3)c(O)c(O)c12
 : -23%	19%
- CC1(C(=O)NS(=O)(=O)c2ccc(Cl)cc2)CCN1C(=O)C1CC1 (stereo not drawn)
 : 3%	-15%
- CC(C)C[C@@H](CN)NC(=O)c1nc[nH]c1C(=O)N[C@@H](C)C(=O)CNC[C@H](C)NC(=O)c1nc[nH]c1C(=O)N[C@@H](CC(C)C)C(=O)O
 : -9%	-26%
- NC(=O)c1cccc(-c2ccnc3c2CC(C(=O)Nc2cccc(C(F)(F)F)c2)O3)c1 (stereo not drawn)
 : 4%[18.4 µM]	28µM*
- Cc1ccc(OCC(=O)Nc2cc(Cl)ccc2-n2cncn2)c(C)c1
 : 23%	15%
- COC(=O)C(CSCc1ccccc1)NC(=O)CCNC(=O)OCc1ccccc1 (stereo not drawn)
 : -12%	-1%
- OC(c1ccc(F)c(F)c1)c1nc(-c2ccc3ccccc3c2)cs1 (stereo not drawn)
 : ?	33%[activator]
- Cn1c(=O)n(C)c2cc(NC(=O)c3ccccc3)ccc21
 : -14%	-3%
- CC(C)N(C)c1ncnc2c1ncn2[C@H]1CN(Cc2ccc(F)cc2)C[C@@H](CO)O1
 : 15%	-16%
- CCN1CCN(C(=O)c2ccc(CS(=O)(=O)Cc3ccccc3Cl)o2)CC1
 : -10%	-15%
- O=C1NC(Cc2ccccc2)c2nc3cc(F)ccc3c(=O)n2-c2ncccc21 (stereo not drawn)
 : 9%	-12%
- COc1ccc(C(O)c2nc(-c3cccc(C(=O)O)c3)cs2)cc1 (stereo not drawn)
 : 15%	35%[activator]
- CN(Cc1ccccc1)N=Nc1nc[nH]c1C(N)=O
 : 4%[18.4 µM]	-19%
- C[C@@H]1CC2=C(C(=O)OC(C)(C)O2)[C@H](c2ccc(F)cc2)O1
 : 4%	-23%
- CSCCC(C(=O)Nc1c(C)cccc1C)n1c(-c2ccc(C(F)(F)F)cc2)nc2ccccc21 (stereo not drawn)
 : -28%	-4%
- Nc1ccn(CCCNC2CCN(Cc3ccccc3)CC2)c(=O)n1
 : -1%	-7%
- CNCC(O)c1ccc(OC(=O)C(C)(C)C)c(OC(=O)C(C)(C)C)c1 (stereo not drawn)
 : -7%[18.4 µM]	-19%
- O=C1NC(Cc2ccccc2)c2nc3cc(Cl)ccc3c(=O)n2-c2ncccc21 (stereo not drawn)
 : 15%	?
- CN(C(=O)C1Cc2c(-c3ccc(Cl)cc3)ccnc2O1)c1ccccc1 (stereo not drawn)
 : -4%	-20%
